Screens as filed in PubChem.
PABP FP inh = PABP-poly(A) binding inhibition. P11940. PABP-poly(A) RNA binding, fluorescence polarization. inhibition, % at 35 µM. actives 1% (n = 290,000);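 active = 50% or more with normal probe brightness, or confirmed in later tests; inconclusive = above 50% with abnormal brightness, or retests that disagree; inactive = below 50% or failed in later tests; about a fifth of its hits are not listed in these tables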;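 note: calls also rest on retests at 20 µM and on dose response follow-up; controls were probe without protein and protein plus probe with vehicle; some compounds called inactive have numbers as strong as hits; many hits fall short of the cut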
Target sequence (P11940 whole entry, looked up): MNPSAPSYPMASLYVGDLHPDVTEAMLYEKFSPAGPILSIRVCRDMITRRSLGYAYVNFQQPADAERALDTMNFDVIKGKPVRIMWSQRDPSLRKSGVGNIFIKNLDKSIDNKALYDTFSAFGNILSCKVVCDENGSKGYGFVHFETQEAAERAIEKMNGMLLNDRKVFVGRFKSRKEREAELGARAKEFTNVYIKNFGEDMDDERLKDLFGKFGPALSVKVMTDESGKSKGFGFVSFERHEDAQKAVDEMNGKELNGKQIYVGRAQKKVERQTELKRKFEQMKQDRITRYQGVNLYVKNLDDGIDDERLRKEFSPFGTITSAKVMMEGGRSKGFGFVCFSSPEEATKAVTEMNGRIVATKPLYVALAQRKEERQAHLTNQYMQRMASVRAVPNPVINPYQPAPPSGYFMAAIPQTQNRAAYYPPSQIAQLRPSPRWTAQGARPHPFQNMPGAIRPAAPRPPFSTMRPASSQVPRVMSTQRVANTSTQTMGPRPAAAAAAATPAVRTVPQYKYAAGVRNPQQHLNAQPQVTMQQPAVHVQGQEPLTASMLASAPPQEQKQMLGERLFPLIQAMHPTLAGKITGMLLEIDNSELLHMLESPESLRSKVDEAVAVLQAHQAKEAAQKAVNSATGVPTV
Yeast UUG start = yeast start codon fidelity modulation. activity score, % at 18.7 µM. S. cerevisiae UUG-firefly luciferase reporter, luminescence/redox ratio. actives 0.13% (n = 350,000);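 active = replicate mean at a twofold rise or more, about +100% in these data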;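 note: firefly luciferase made from a UUG start codon reports start codon fidelity; reporter light over untreated wells divided by growth signal over untreated wells; some hits fall short of that in this replicate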
eIF4H FP inh = inhibitors of RNA binding by human eIF4H; actives 0.94% (n = 290,000); eIF4H fluorescence polarization binding assay; Q15056; inhibition, % at 35 µM;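 active = 50% or more with normal probe brightness, or confirmed in later tests; inconclusive = above 50% with abnormal brightness, or retests that disagree; inactive = below 50% or failed in later tests; about a fifth of its hits are not listed in these tables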;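 note: calls also rest on retests at 20 µM and on dose response follow-up; 0% = protein and probe with vehicle and 100% = probe without protein; strong numbers were not always called active; many hits fall short of the cut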
Rce1 inh = yeast Ras-converting enzyme inhibition. Q03530. yeast membranes, quenched prenylated peptide cleavage fluorescence. calls only. actives 0.27% (n = 290,000);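 active = fall in fluorescence gain of 50% or more versus controls, with final raw signal at or below 3038400; inconclusive = same 50% fall but final raw signal above 3038400; inactive = fall in fluorescence gain under 50%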;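 note: plate controls were neutral control wells for no effect and wells lacking membranes for full effect; tested at 10 µM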
MT1-MMP act inh = blocks activation of human MT1-MMP | P50281 | actives 0.061% (n = 360,000) | AID 651647 | GFP/RFP ratio change, % at 20 µM | HT1080 RFP-PRO-GFP cells, GFP/RFP ratio fluorescence, overnight; percent of plate control window, DMSO zero;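 active = GFP/RFP ratio change of at least 30% with cell ATP level not reduced by more than half and red fluorescence within 50% of control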; note: strong numbers were not always called active
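Assay system – RFP-PRO-GFP reporter HT1080 cells · Compound dosing – single dose of 20 µM compound, 1% DMSO final · Incubation – overnight compound exposure at 37 °C · Measure – GFP/RFP fluorescence ratio · Benchmarks – DMSO wells and RFP-L50D-GFP cells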
Env fusion inh = inhibitors of HIV Env-mediated cell fusion. AID 651610. actives 1.1% (n = 360,000). inhibition, % at 12.3 µM. HeLa-JRFL Env/CEM21 cell fusion, luciferase;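 active = mean replicate inhibition score of at least 50 and every replicate individually at or above 50; inconclusive = only one of the two criteria met; inactive = mean below 50 and not all replicates reaching 50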;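 note: 0% = plate neutral controls and 100% = maraviroc near 300 nM; one replicate is shown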
CSC inhib = cancer stem cell inhibition. AID 2717. cancer stem cell-like cells viability, luminescence. inhibition, % at 7.5 µM. actives 1.1% (n = 300,000);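 active = mean at 75% or more and at least half the replicates too; inconclusive = mean and replicates disagree; tested in HMLE shEcad cells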;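 note: 0% = median of negative and 100% = median of positive control wells; the first replicate is given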
eIF4H FP inh retest = also measured in eIF4H FP inh; calls as there; inhibition, %; compound at 20 µM; confirmation average;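 mean of two retest wells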
PABP FP inh retest = also measured in PABP FP inh; calls as there; inhibition, %; compound at 20 µM; confirmation repeats;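 mean of two retest wells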
MT1-MMP act inh RFP = further read-out of MT1-MMP act inh, marked with its call; RFP signal change, %; measured here: RFP expression control read;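 0 = vehicle wells; hits needed this value within 50% of zero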
Active calls of the source: *; i = inactive; ? = inconclusive; nt = no result given.

SMILES	PABP FP inh	Yeast UUG start	eIF4H FP inh	Rce1 inh	MT1-MMP act inh	MT1-MMP act inh RFP	Env fusion inh	CSC inhib	others
CCn1cc(C(=O)NCC(OC)OC)c(=O)c2cc(S(=O)(=O)N3CCC(C)CC3)ccc21	1.9	-0.4	6.3	i	-6.4	-0.4	2.8	-1.3
CC(NC(=O)Cc1ccsc1)c1ccc(F)cc1 (stereo not drawn)	-5.3	-11.3	-9.7	nt	3.7	5.6	8.5	-9.8
CCc1ccc(Nc2cc(C)nc3ncnn23)cc1	-1.7	-21.2	-7.6	i	-1.7	2.1	22.3	-7.7
COc1ccc(C2C3C(=O)N(Cc4ccccc4)C(=O)C3ON2c2ccccc2)c(OC)c1OC (stereo not drawn)	-4.5	-18.7	-7.6	nt	-7.7	-10.3	nt	-3.8
Cc1ccc2oc(C(=O)N3CCN(CCO)CC3)c(C)c2c1	-5.4	-5.6	-0.3	i	4.3	5.6	-11.5	-7.6
O=S1(=O)[C@H]2C[C@@H]3C=C[C@@]2(CN1Cc1ccc(F)cc1)O3	17.3	-11.7	11.2	i	-0.6	0.9	22.4	-2.5
Cc1ccc(/C(N)=N/OC(=O)COc2ccc(Cl)c(C)c2)cc1	4.3	-8.6	1.1	i	1.2	2.5	-4.0	-4.6
CC(C)CC(=O)/C(=C\c1ccc(Cl)cc1Cl)n1cncn1	98.3	-32.3	-2.9	i	-37.6	-40.9	nt	nt	eIF4H FP inh retest=-15.6;PABP FP inh retest=5.1
Cc1ccc(C(=O)N[C@H](C(=O)OCc2cc(=O)n3c(n2)sc2ccccc23)C(C)C)cc1	11.1	nt	50.2	i	1.5	-3.4	-25.1	-20.9	eIF4H FP inh retest=1.1;PABP FP inh retest=-4.6
CCn1c(SCc2cccnc2)nc2c1c(=O)n(C)c(=O)n2C	10.1	-17.5	5.7	i	-1.0	-1.3	-11.3	-19.2
N#Cc1c2n(c3c(=O)n(CC(=O)c4ccc(Br)cc4)cnc13)CCCC2	12.8	-12.4	-4.3	i	0.0	1.5	nt	3.3
COc1ccc(-n2nc(C(=O)NCC(=O)NCCC3=CCCCC3)c3ccccc3c2=O)cc1	3.3	-0.2	3.7	i	-2.7	-8.0	8.8	10.5
O=C1COc2ccc(S(=O)(=O)CCC(=O)NC3CCCCC3)cc2N1	9.9	-24.4	-1.5	i	1.6	5.0	0.6	-17.3
CN1C(=O)c2c(sc3c2CC(C)(C)SC3)N2CCN=C12	-0.8	nt	3.2	i	6.8	5.1	nt	-11.0
O=C(CSc1nnc(-c2ccccc2)n1Cc1ccccc1)NC1CC1	-11.8	-7.7	-4.8	i	-2.0	-2.3	nt	-10.9
COc1ccc2c(c1)CC/C(=C\Nc1ccc3c(c1)OCO3)C2=O	57.9*	-29.5	65.9*	nt	11.6	11.6	nt	43.9
CC(=O)NCCc1nc2cc(NC(=O)c3ccc(F)cc3)ccc2n1C	2.9	-13.5	-4.1	i	4.6	0.5	-71.7	-5.1
C/C(=N\NC(=O)Cn1nc(C)cc1C)c1ccc([N+](=O)[O-])cc1	0.3	nt	-3.6	i	2.5	-3.9	-9.2	-8.6
Cc1cnc(CN2CCc3c([nH]c4ccccc34)C2CC(C)C)[nH]1 (stereo not drawn)	63.4*	nt	19.9	i	-9.2	2.7	0.1	10.2
COc1ccccc1CNC(=O)C(C)c1ccc([N+](=O)[O-])cc1 (stereo not drawn)	9.9	nt	3.8	i	-1.7	-1.4	5.7	nt

Overlap with the part before: two compounds, then new ones.
SMILES	PABP FP inh	Yeast UUG start	eIF4H FP inh	Rce1 inh	MT1-MMP act inh	MT1-MMP act inh RFP	Env fusion inh	CSC inhib	others
Cc1cnc(CN2CCc3c([nH]c4ccccc34)C2CC(C)C)[nH]1 (stereo not drawn)	63.4*	nt	19.9	i	-9.2	2.7	0.1	10.2
COc1ccccc1CNC(=O)C(C)c1ccc([N+](=O)[O-])cc1 (stereo not drawn)	9.9	nt	3.8	i	-1.7	-1.4	5.7	nt
Cc1noc(C(=O)Nc2ccc(Cl)cc2)c1Cl	-5.1	nt	1.8	i	nt	nt	nt	-2.4
COc1cc(C(=O)NC(=S)Nc2ccc(N3CCCC3)cc2)cc(OC)c1OC	-4.8	nt	-0.8	i	3.5	4.7	nt	-11.0
COc1ccc(NC(=O)COc2nsnc2N2CCOCC2)c(OC)c1	8.1	-3.7	-12.7	i	0.2	-6.5	13.0	4.2
CC(C)Cn1c(N)c(C(=O)COC(=O)c2ccc(O)cc2)c(=O)n(C)c1=O	-8.9	nt	-4.4	i	3.2	-1.6	14.3	7.3
COC(=O)C1=C(C(=O)OC)[C@@H]2N(C)c3ccccc3[C@@]23C[C@@H](C(=O)OC)N(C(=O)C2CCC2)C3=N1	-0.8	-5.7	1.5	i	1.5	0.3	-13.0	0.4
CCN1CCN(C(c2cccs2)C(C)NC(=O)c2c(F)cccc2F)CC1 (stereo not drawn)	3.5	-16.0	-2.6	i	-1.5	5.2	nt	-3.6
CC(C)Oc1cc(F)ccc1-c1cc(C(=O)NCc2ccccn2)[nH]n1	nt	-23.9	nt	nt	6.4	-3.0	?	nt
Cc1cc(C)nc(N/N=C/c2cccc3ccccc23)n1	?	nt	2.0	i	1.3	-0.7	nt	-13.0
Cc1ccc2[nH]c(=O)c(CN(C)S(=O)(=O)c3cccc4nonc34)cc2c1	-4.9	-10.3	-5.4	i	3.7	4.8	4.6	3.1
COc1ccc2c(=O)c3c(=O)n(Cc4ccccc4)c(C(C)C)nc3oc2c1	nt	4.0	nt	nt	1.3	-1.9	-10.4	nt
COc1ccc(CNC(=O)CCOc2ccc(C(C)(C)C)cc2)cc1	-12.3	-0.4	-9.0	i	-3.0	-6.5	nt	-6.4
O=C(CSc1nc2ccccc2s1)Nc1ccc(N2CCOCC2)c(Cl)c1	11.2	nt	-2.5	i	-2.7	0.0	15.3	9.6
CCCC1(C)SC(NC(C)=O)=NN1C(C)=O (stereo not drawn)	3.6	-17.0	1.4	i	-2.2	1.5	18.3	nt
O=S(=O)(c1ccc(Br)s1)N1CCNCC1	2.3	-1.0	0.9	i	1.1	0.8	12.2	-8.0
COc1ccc2oc(=O)c(C(=O)NCc3cccnc3)cc2c1	-4.1	6.7	-3.3	i	4.5	4.2	nt	-20.9
O=C(OCC(=O)N1CCc2ccccc2C1)c1cc(=O)[nH]c2ccccc12	0.7	-7.6	3.5	i	-2.7	-2.2	7.3	-6.5
Cc1ccc(-n2c(SCc3nnc4n3CCC4)nnc2-c2ccccc2)cc1	-1.1	-24.2	7.4	i	-2.5	1.6	25.1	7.2
CC(C)n1c(N2CCCC2)nc2c1c(=O)[nH]c(=O)n2C	5.2	-4.3	-12.1	i	2.1	0.6	-17.1	-6.7
Cc1cc(N2CCOCC2)ccc1/C=C1\SC(=O)N(C(C)C)C1=O	-12.3	6.2	-3.4	i	-10.7	-2.6	-198.4	21.0
Clc1ccccc1OCCCOc1cccc2cccnc12	-12.2	3.9	3.0	i	-0.6	-3.1	-36.1	19.3

Compounds above containing an aryl thioether with sulfur outside any ring, in the order listed:
SMILES	PABP FP inh	Yeast UUG start	eIF4H FP inh	Rce1 inh	MT1-MMP act inh	MT1-MMP act inh RFP	Env fusion inh	CSC inhib	others
CCn1c(SCc2cccnc2)nc2c1c(=O)n(C)c(=O)n2C	10.1	-17.5	5.7	i	-1.0	-1.3	-11.3	-19.2
O=C(CSc1nnc(-c2ccccc2)n1Cc1ccccc1)NC1CC1	-11.8	-7.7	-4.8	i	-2.0	-2.3	nt	-10.9
O=C(CSc1nc2ccccc2s1)Nc1ccc(N2CCOCC2)c(Cl)c1	11.2	nt	-2.5	i	-2.7	0.0	15.3	9.6
Cc1ccc(-n2c(SCc3nnc4n3CCC4)nnc2-c2ccccc2)cc1	-1.1	-24.2	7.4	i	-2.5	1.6	25.1	7.2

More structures.
SMILES	PABP FP inh	Yeast UUG start	eIF4H FP inh	Rce1 inh	MT1-MMP act inh	MT1-MMP act inh RFP	Env fusion inh	CSC inhib	others
Cc1cc(Nc2ccccc2)n(CCOC(=O)COc2ccccc2)n1	-7.1	-24.2	-0.8	i	4.3	3.7	nt	-6.6
O=C(O)CN(c1ccc(F)cc1)S(=O)(=O)c1ccc2c(c1)OCCO2	-8.1	-17.2	1.2	i	2.1	-0.7	nt	-3.0
Cc1ccc(NC(Cc2cc(C)no2)c2ccccc2)cc1 (stereo not drawn)	-0.6	-6.2	-4.7	i	-2.4	-5.3	-5.5	6.2
N#Cc1c(-c2ccco2)cc(C2CC2)nc1N	19.5	6.0	11.5	i	-10.2	6.4	-62.4	0.9
COCCCNC(=O)c1ccc(N2CCOCC2)c(NS(=O)(=O)c2ccc(OC)cc2)c1	4.1	-2.0	9.6	i	6.9	3.4	-50.2	-9.9
COc1ccc(C(=O)NCc2cnn(C)c2C)cc1OC1CCN(C(C)C)CC1	-8.0	-14.8	-2.4	i	2.2	1.2	-3.0	-5.6
Nc1nc(SCc2ccc(Br)cc2)c2ncn(C3OC(CO)C(O)C3O)c2n1 (stereo not drawn)	nt	-19.5	nt	nt	7.1	-3.8	-6.1	nt
CCCOc1ccc(S(=O)(=O)NNC(=O)c2cc3ccccc3o2)cc1	19.2	-2.6	4.1	i	3.8	7.0	22.9	-8.3
COC(=O)C1=C(CS(=O)(=O)c2ccc(C)cc2)NC(=O)NC1c1ccc(OC)c(OC)c1 (stereo not drawn)	2.0	-11.4	-5.0	i	-2.1	4.5	9.7	-14.4
CC(C)Cn1c(N)c(C(=O)COC(=O)[C@H](C)NC(=O)c2ccccc2Cl)c(=O)n(C)c1=O	nt	-7.1	nt	i	3.5	-2.8	12.5	0.8
CSc1ccc(/C=C2\C(=N)N3N=C(CC(=O)N4CCCCC4)SC3=NC2=O)cc1	1.7	-15.8	10.2	i	-11.5	-1.1	-0.5	-5.2
COC(CNC(=O)c1ccc(Cn2c(=S)[nH]c3cc4c(cc3c2=O)OCO4)cc1)OC	-9.6	-15.2	-0.8	i	-2.1	1.8	-40.9	-4.8
CNCCC1Sc2ccccc2Oc2ccccc21 (stereo not drawn)	-8.7	-14.6	-2.5	i	-28.3	-11.4	-4.2	-12.6
COCCN(Cc1cc2cc(C)ccc2n2nnnc12)C(=S)Nc1cccc(C)c1	19.5	nt	5.0	i	-1.8	-7.9	3.6	10.0
COc1ccc(NC(=O)CSc2nnc3n2CCCCC3)cc1	-11.3	nt	-7.2	i	0.6	1.8	-17.8	-8.6
COc1ccc(NC(=O)COC(=O)CCCC2=NS(=O)(=O)c3ccccc3N2)cc1	-4.9	-12.9	-9.8	i	2.6	2.9	-8.3	-3.6

Compounds as they come. Share with any hit: about 3%.
